Vif TR-FRET – inhibitors of Vif binding to APOBEC3G peptide, primary screen, biochemical, TR-FRET, GST-Vif 1-94, biotin-A3G peptide, dose response retest (AID 1117319) | actives 0.57% (n = 260,000) | Virion infectivity factor (Human immunodeficiency virus type 1 group M subtype B (isolate … | one-dose inhibition, %; IC50 in µM for titrated hits | TR-FRET GST-Vif / biotin-A3G peptide binding; higher % means a stronger effect; test concentration not given here; strong numbers were not always called active;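 active = above the screen mean plus three standard deviations and confirmed in dose response; inconclusive = results disagree or hit not tested in dose response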;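 note: Vif residues 1-94 fused to GST binding biotinylated APOBEC3G peptide 110-148; 0% = full assay without inhibitor and 100% = GST in place of GST-Vif; retest series ran down from 100 µM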
A1 inh – caspase 3/7 activation in MEF A1-2A-BIM cells, primary screen, A1 inhibitor project, cell-based, luminescence, HTS; AID 2462, 2010; Caspase-Glo 3/7 luminescence, 3 h; percent of clofoctol response, vehicle zero; actives 0.066% (n = 330,000); caspase activation, % (concentration not given with the values);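 active = over half of replicate activation scores above 10%, or exactly half above 10 with the replicate mean above 10; inconclusive = replicate mean below 10 yet half the replicates above 10; inactive = over half of replicates below 10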;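 note: wells of about 30 µL received 50 nL stock; many hits fall short of the cut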
HNF4A DNA FP – change in binding of human HNF4A to DNA, primary screen, biochemical, fluorescence polarization, FITC-DNA; Hepatocyte nuclear factor 4-alpha (Homo sapiens), P41235; 1 h; activity change, % at 10 µM; actives 0.3% (n = 360,000); AID 1224865, 2016; in the data active = activity change above about 30%, passing the limit was not always enough;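 note: controls were the assay level and a saturating level of protein; the project sought stronger binding though the title names inhibitors; some compounds called inactive have numbers as strong as hits; positive values seem to mean higher polarization but the record does not say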
Ecoli growth – E. coli growth inhibition, primary screen, OD600 | Escherichia coli growth, 23 h; active compounds read low | OD600 absorbance (concentration not given with the values) | actives 0.21% (n = 330,000);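 active = OD600 absorbance below the run mean of sample wells minus 3.6 SD, in any replicate, cut at about 0.56 in these data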;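 note: stock transfer was 300 nL into about 60 µL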
UCH37 DUB inh – inhibitors of human UCH37 deubiquitinase, primary screen, biochemical, Ub-AMC cleavage, fluorescence; Ubiquitin carboxyl-terminal hydrolase isozyme L5 (Homo sapiens), Q9Y5K5; actives 0.33% (n = 330,000); purified proteasome/UCH37; inhibition, % (test concentration not listed); AID 588478, 2011;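 active = mean of two replicates above 20%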;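 note: 0% = compound-free wells with enzyme and 100% = wells lacking proteasome; stock transfer was 100 nL into about 20 µL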
Target sequence (Q9Y5K5 whole entry, looked up): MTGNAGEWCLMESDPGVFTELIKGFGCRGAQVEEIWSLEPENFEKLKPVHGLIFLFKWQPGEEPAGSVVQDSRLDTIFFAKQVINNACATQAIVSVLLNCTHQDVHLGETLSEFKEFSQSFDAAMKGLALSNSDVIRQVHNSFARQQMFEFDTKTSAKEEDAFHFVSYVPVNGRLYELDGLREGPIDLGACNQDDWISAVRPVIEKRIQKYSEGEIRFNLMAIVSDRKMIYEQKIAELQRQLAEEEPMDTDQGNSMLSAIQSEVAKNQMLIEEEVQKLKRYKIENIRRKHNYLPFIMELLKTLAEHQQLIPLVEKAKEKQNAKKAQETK
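Material: Human UCH37 enzyme supplied as purified proteasome complex | Schedule: 30 min preincubation with enzyme, 25 min cleavage at room temperature | Detection: AMC fluorescence 355/460 nm | Measure: % inhibition of Ub-AMC cleavage fluorescence | Controls: Wells without proteasome as full block, compound-free enzyme plus substrate as uninhibited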
LANA-H2A inh – blockers of LANA interaction with H2A/H2B – biochemical, FP readout, HTS, primary screen | actives 0.6% (n = 320,000) | inhibition, % (no concentration beside the values) | cell-free LANA-H2A/H2B peptide, fluorescence polarization | AID 2629, 2010; in the data active = inhibition mostly above about 10%, no sharp cut-off; inactive = mostly below about 6.7%;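 note: stock transfer was 7.5 nL into about 10 µL; 0% = median of vehicle wells and 100% = median of positive control wells; one replicate is shown; the record names a cut of 25% in any replicate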
Beta2AR agonist – beta2AR agonists driving receptor internalization, primary screen, cell-based, FAP fluorogen, flow cytometry. actives 0.43% (n = 340,000). Am2.2-beta2AR cells; reference of the scale not given here. Beta-2 adrenergic receptor (Homo sapiens), P07550. response, % (no concentration beside the values);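 active = response above a set limit, near 3 SD of response in nonfluorescent compounds, cut at about 42% in these data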;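 note: stock transfer was 100 nL into about 11 µL; a reference agonist was the positive control; negative values mostly stem from fluorescent compounds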
Target sequence (P07550 whole entry, looked up): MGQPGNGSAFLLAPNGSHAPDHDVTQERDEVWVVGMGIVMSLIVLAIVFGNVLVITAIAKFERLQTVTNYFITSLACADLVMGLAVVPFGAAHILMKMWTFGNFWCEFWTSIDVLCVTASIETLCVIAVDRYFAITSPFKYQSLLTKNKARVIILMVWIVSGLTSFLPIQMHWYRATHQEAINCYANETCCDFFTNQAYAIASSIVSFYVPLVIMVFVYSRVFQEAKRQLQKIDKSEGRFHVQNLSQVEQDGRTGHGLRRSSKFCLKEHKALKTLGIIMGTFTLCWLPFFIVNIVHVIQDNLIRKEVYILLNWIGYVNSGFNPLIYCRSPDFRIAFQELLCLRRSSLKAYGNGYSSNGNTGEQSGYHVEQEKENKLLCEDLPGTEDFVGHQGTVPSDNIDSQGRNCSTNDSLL
* = called active by the depositor.

A first look, 2 compounds:
Results for COc1ccc(F)cc1CSc1nnnn1-c1ccc(O)cc1 ?
A1 inh: 1.1; HNF4A DNA FP: -1.1; Ecoli growth: 0.65; UCH37 DUB inh: 1.2; LANA-H2A inh: 0.4; Beta2AR agonist: -9

Results for O=C(CCN1CCN(C(=O)c2ccco2)CC1)Nc1ccc(F)cc1 ?
Vif TR-FRET: -3%; A1 inh: -0.6; HNF4A DNA FP: 2.3; Ecoli growth: 0.69; UCH37 DUB inh: 3.9; LANA-H2A inh: 1.6; Beta2AR agonist: -3

The whole of this part, repeating the preview:
Results for COc1ccc(F)cc1CSc1nnnn1-c1ccc(O)cc1 ?
A1 inh: 1.1; HNF4A DNA FP: -1.1; Ecoli growth: 0.65; UCH37 DUB inh: 1.2; LANA-H2A inh: 0.4; Beta2AR agonist: -9

Results for O=C(CCN1CCN(C(=O)c2ccco2)CC1)Nc1ccc(F)cc1 ?
Vif TR-FRET: -3%; A1 inh: -0.6; HNF4A DNA FP: 2.3; Ecoli growth: 0.69; UCH37 DUB inh: 3.9; LANA-H2A inh: 1.6; Beta2AR agonist: -3

Results for COc1ccc(OC)c(Nc2nc(N)nc(CSc3nnc(-c4ccncc4)o3)n2)c1 ?
Vif TR-FRET: 1%; A1 inh: 1.4; Ecoli growth: 0.69; UCH37 DUB inh: 1.9; LANA-H2A inh: -3.1

Results for Cc1cc(=O)n(Cc2ccccc2)c(O)c1C#N ?
Vif TR-FRET: 3%; A1 inh: -0.7; HNF4A DNA FP: 3.5; Ecoli growth: 0.61; UCH37 DUB inh: -5.7; LANA-H2A inh: -5.3; Beta2AR agonist: 6

What do the screens show for `COCCCn1c(=O)c2sccc2n(Cc2ccccc2)c1=O`?
A1 inh: -0.1; HNF4A DNA FP: 0.0; Ecoli growth: 0.65; UCH37 DUB inh: 4.1; LANA-H2A inh: 0.9; Beta2AR agonist: 25

How did CSc1sc(C(=O)N(C)C)c2c1S(=O)(=O)N(C)c1ccccc1-2 do in these assays?
A1 inh: -0.5; HNF4A DNA FP: -5.5; Ecoli growth: 0.68; UCH37 DUB inh: 7.6; LANA-H2A inh: 0.2; Beta2AR agonist: 7

What do the screens show for `COc1cc(OC)c(OC)cc1CN1CCC(O)CC1`?
Vif TR-FRET: -8%; A1 inh: 0.0; HNF4A DNA FP: 0.8; Ecoli growth: 0.63; UCH37 DUB inh: 6.0; LANA-H2A inh: 3.3; Beta2AR agonist: -1

What do the screens show for `COc1ccc(N(C(=O)CNC(=O)c2cccs2)C(C(=O)NC2CCCC2)c2cccnc2)cc1` (stereo unspecified)?
Vif TR-FRET: -4%; A1 inh: -0.3; HNF4A DNA FP: -1.0; Ecoli growth: 0.66; UCH37 DUB inh: -0.3; LANA-H2A inh: -1.9; Beta2AR agonist: -16

Results for O=C(OCC(=O)N1CCCC1)c1ccc(Cl)nc1 ?
HNF4A DNA FP: -0.7; Ecoli growth: 0.68; UCH37 DUB inh: 1.7; Beta2AR agonist: -5

Results for CCCCN1C(=O)c2ccc(C(=O)NC3(C)CCS(=O)(=O)C3)cc2C1=O (stereo unspecified) ?
Vif TR-FRET: -5%; A1 inh: 0.1; HNF4A DNA FP: -2.6; Ecoli growth: 0.69; UCH37 DUB inh: 3.2; LANA-H2A inh: -4.0; Beta2AR agonist: -7

Results for O=C(Nc1ccc2c(c1)CCCN2C(=O)c1ccccc1)c1ccccc1Br ?
Vif TR-FRET: 3%; A1 inh: -3.5; HNF4A DNA FP: -0.7; Ecoli growth: 0.71; UCH37 DUB inh: 1.6; LANA-H2A inh: -2.4; Beta2AR agonist: 4

What do the screens show for `COc1ccc(N2CCCCn3c2nc2c3c(=O)[nH]c(=O)n2C)cc1`?
Vif TR-FRET: inconclusive; A1 inh: -0.1; HNF4A DNA FP: -4.0; Ecoli growth: 0.72; UCH37 DUB inh: 1.7; LANA-H2A inh: -1.4; Beta2AR agonist: -3

What do the screens show for `O=C(NCc1ccccc1Cl)C1(S(=O)(=O)c2ccc(Cl)cc2)CC1`?
A1 inh: -0.5; HNF4A DNA FP: -1.8; Ecoli growth: 0.67; UCH37 DUB inh: 0.4; LANA-H2A inh: -4.4; Beta2AR agonist: -1

How did COc1ccc(C(=O)CSc2nn3c(=O)c(C(C)(C)C)nnc3s2)cc1 do in these assays?
Vif TR-FRET: -11%; A1 inh: 0.3; HNF4A DNA FP: 0.3; Ecoli growth: 0.74; UCH37 DUB inh: 3.2; LANA-H2A inh: -2.8; Beta2AR agonist: -11

Results for N#CC1=C(SCC(=O)NC23CC4CC(CC(C4)C2)C3)NC(=O)C(C#N)C12CCCCC2 (stereo unspecified) ?
Vif TR-FRET: 16%; A1 inh: 0.1; HNF4A DNA FP: -0.7; Ecoli growth: 0.7; UCH37 DUB inh: 1.5; LANA-H2A inh: -0.5; Beta2AR agonist: 1

How did NC(=O)c1ccc(N2CCN(c3ncc(C(F)(F)F)cc3Cl)CC2)cc1 do in these assays?
Vif TR-FRET: 80%; A1 inh: 1.1; HNF4A DNA FP: 0.3; Ecoli growth: 0.72; UCH37 DUB inh: -0.2; LANA-H2A inh: 0.2; Beta2AR agonist: 2

Results for CCOC(Cn1c(-c2ccc(OC)cc2)nc2ccccc21)OCC ?
Vif TR-FRET: -3%; A1 inh: 1.5; HNF4A DNA FP: 2.2; Ecoli growth: 0.68; UCH37 DUB inh: -0.8; LANA-H2A inh: 3.9; Beta2AR agonist: 4

Results for COc1ccc(-c2nnc(SCC(=O)Nc3ccccc3)n2C)cc1 ?
Vif TR-FRET: 0%; A1 inh: -0.1; HNF4A DNA FP: -0.5; Ecoli growth: 0.66; UCH37 DUB inh: 0.0; LANA-H2A inh: -5.7; Beta2AR agonist: 4

How did COC(=O)c1ccccc1-c1ccc(/C=N/NC(N)=O)o1 do in these assays?
Vif TR-FRET: -4%; A1 inh: -0.3; HNF4A DNA FP: -1.9; LANA-H2A inh: -0.8; Beta2AR agonist: 10

Results for CCOC(=O)CSc1n[nH]c(NC(=O)c2ccccc2)n1 ?
Vif TR-FRET: 2%; A1 inh: -0.4; HNF4A DNA FP: -1.4; Ecoli growth: 0.74; UCH37 DUB inh: 2.2; LANA-H2A inh: 5.4; Beta2AR agonist: 6

What do the screens show for `CN(Cc1nc(-c2ccc3c(c2)OCO3)no1)CC1(N2CCOCC2)CCCCC1`?
Vif TR-FRET: 2%; A1 inh: 0.0; HNF4A DNA FP: 6.5; Ecoli growth: 0.71; UCH37 DUB inh: -0.4; LANA-H2A inh: 3.0; Beta2AR agonist: 3

How did Cn1nc(C(=O)Nc2cccc(Cl)c2)cc1C(=O)Nc1cccc(Cl)c1 do in these assays?
A1 inh: 0.6; HNF4A DNA FP: -3.3; Ecoli growth: 0.7; UCH37 DUB inh: -5.8; LANA-H2A inh: 3.1; Beta2AR agonist: 6

What do the screens show for `O=[N+]([O-])c1ccccc1S(=O)(=O)NCc1ccc(F)cc1`?
Vif TR-FRET: 5%; A1 inh: -0.4; HNF4A DNA FP: -1.4; Ecoli growth: 0.66; UCH37 DUB inh: 4.8; LANA-H2A inh: 13; Beta2AR agonist: -3

How did CCN(c1ccccc1)S(=O)(=O)c1ccc(Cl)c(NC(=O)CN2C(=O)NC3(CCCC3)C2=O)c1 do in these assays?
A1 inh: 0.3; HNF4A DNA FP: -2.6; Ecoli growth: 0.7; UCH37 DUB inh: 4.6; LANA-H2A inh: 6.3; Beta2AR agonist: -4

Results for CCC(C)(C)NC(=O)C(c1ccc(OC)cc1)N(C(=O)CCC(=O)Nc1cc(C)on1)c1ccc2c(c1)OCO2 (stereo unspecified) ?
A1 inh: 0.7; HNF4A DNA FP: 1.6; Ecoli growth: 0.67; UCH37 DUB inh: 0.4; LANA-H2A inh: -3.1; Beta2AR agonist: 1

What do the screens show for `COc1ccc(-c2cc(C(=O)Nc3ccc4c(c3)OCO4)no2)cc1`?
A1 inh: 0.1; HNF4A DNA FP: -2.3; Ecoli growth: 0.71; UCH37 DUB inh: -126; LANA-H2A inh: 3.2; Beta2AR agonist: -2

Results for O=C1CC(C(=O)Nc2ccc(Br)cc2)C2(CCCC2)O1 (stereo unspecified) ?
Vif TR-FRET: 13%; A1 inh: inconclusive; Ecoli growth: 0.67; UCH37 DUB inh: 4.1; LANA-H2A inh: 1.1

How did CCOC(=O)c1c(C(=O)OCC)c(C)n(Cc2cc(OC)c(OC)c(OC)c2)c1C do in these assays?
Vif TR-FRET: -2%; A1 inh: 0.3; HNF4A DNA FP: -2.7; Ecoli growth: 0.63; UCH37 DUB inh: 0.9; LANA-H2A inh: 1.0; Beta2AR agonist: 0

How did CC1(C)CC(=O)C=C(NCC2CCCO2)C1 (stereo unspecified) do in these assays?
Vif TR-FRET: 4%; A1 inh: -0.8; HNF4A DNA FP: -3.2; Ecoli growth: 0.72; UCH37 DUB inh: 2.8; LANA-H2A inh: -0.8; Beta2AR agonist: -3

Results for COC(=O)c1ccc2nc(NC(=O)C3CCCCC3)sc2c1 ?
Vif TR-FRET: 27%; A1 inh: 0.5; HNF4A DNA FP: -6.8; Ecoli growth: 0.68; UCH37 DUB inh: 1.9; LANA-H2A inh: -1.6; Beta2AR agonist: 1

Results for Cc1nn(-c2ccc(F)cc2)c(Cl)c1/C=N/NC(=O)c1cccc(S(=O)(=O)N2CCCC2)c1 ?
Vif TR-FRET: 29%; A1 inh: -0.3; HNF4A DNA FP: -2.9; LANA-H2A inh: 5.1; Beta2AR agonist: 0

What do the screens show for `CCOc1ccc(C(=O)NCC(=O)OCc2nnc(-c3ccccc3)o2)cc1OCC`?
Vif TR-FRET: 6%; A1 inh: -0.4; HNF4A DNA FP: 0.7; Ecoli growth: 0.71; UCH37 DUB inh: 2.9; LANA-H2A inh: 4.5; Beta2AR agonist: -4

What do the screens show for `Cc1ccc(C)c(NC(=O)Cn2nnc(C(=O)NCc3ccco3)c2N)c1`?
A1 inh: -0.2; HNF4A DNA FP: 0.4; Ecoli growth: 0.71; UCH37 DUB inh: 6.6; LANA-H2A inh: -1.3; Beta2AR agonist: 2

What do the screens show for `CCOc1ccc(NC(=O)CN(C)C(=O)CCNC(=O)c2ccco2)cc1OCC`?
Vif TR-FRET: 7%; A1 inh: 0.9; HNF4A DNA FP: -0.3; Ecoli growth: 0.65; UCH37 DUB inh: -2.7; LANA-H2A inh: 1.4; Beta2AR agonist: -6

How did NC(N)=N/N=C/c1ccc(Cl)cc1Cl do in these assays?
A1 inh: 0.5; HNF4A DNA FP: 0.4; LANA-H2A inh: 7.4; Beta2AR agonist: 27

What do the screens show for `CCCCNCCOCCOc1ccc(C)cc1Br`?
Vif TR-FRET: -12%; A1 inh: 0.8; HNF4A DNA FP: 0.4; Ecoli growth: 0.65; UCH37 DUB inh: 4.6; LANA-H2A inh: 5.6; Beta2AR agonist: 14

How did COc1ccc(C2=NOC(C)(c3sc(-c4ccc(Cl)cc4)nc3C)C2)cc1 (stereo unspecified) do in these assays?
A1 inh: -0.8; Ecoli growth: 0.7; UCH37 DUB inh: 2.7; LANA-H2A inh: -2.4

How did COc1ccc(-n2nnnc2SCC(=O)N(C)C2CCS(=O)(=O)C2)cc1 (stereo unspecified) do in these assays?
Vif TR-FRET: -1%; A1 inh: -1.7; HNF4A DNA FP: 5.4; Ecoli growth: 0.7; UCH37 DUB inh: 3.0; LANA-H2A inh: -2.2; Beta2AR agonist: 0

Assay outcomes as filed in PubChem.
